Screening data (PubChem)
Sa growth 42C = S. aureus growth inhibition at 42 and 30 °C, primary screen, LtaS inhibitor project, RN4220, two temperatures | OD600, 20 h, 42 °C; active compounds read low | relative growth, % (concentration not given with the values) | hit rate 0.53% among 170,000 | AID 720641, 2013;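 active = growth at 42 °C up to 50% and 20 or more points under that at 30 °C, or under 10% at both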;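 also: 300 nL library stock went into each well; scaled to the means of positive and negative controls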
GIV-Gai inh = inhibitors of GIV peptide binding to Galpha-i3, primary screen, biochemical, fluorescence polarization, FITC-GIV GBA peptide, rat Galphai3; percent of control (FP), % (test concentration not listed); 90 min; active compounds read low; scaled: aluminum fluoride 0%, vehicle 100%; hit rate 0.42% among 210,000; Guanine nucleotide-binding protein G(i) subunit alpha-3 (Rattus norvegicus), P08753;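 active = replicate mean at 85% of control or lower, very high polarization wells dropped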;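 also: lower values mean more displacement of the GIV peptide from Galpha-i3; wells of about 15 µL received 100 nL stock; the first replicate is given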
Target sequence (P08753 whole entry, looked up): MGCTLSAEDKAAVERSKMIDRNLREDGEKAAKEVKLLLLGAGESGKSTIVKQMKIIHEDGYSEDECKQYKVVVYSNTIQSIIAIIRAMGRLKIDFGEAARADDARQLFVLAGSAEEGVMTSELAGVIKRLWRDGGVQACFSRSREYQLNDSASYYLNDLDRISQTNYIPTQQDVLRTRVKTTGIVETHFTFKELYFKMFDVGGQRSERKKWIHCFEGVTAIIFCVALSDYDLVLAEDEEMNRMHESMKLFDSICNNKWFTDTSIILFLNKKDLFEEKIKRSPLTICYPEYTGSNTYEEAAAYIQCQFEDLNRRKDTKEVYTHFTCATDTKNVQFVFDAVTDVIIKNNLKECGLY
HCMV UL50-53 inh = inhibitors of HCMV UL50-UL53 interaction, biochemical, HTRF; HCMV UL50-UL53 nuclear egress complex (human cytomegalovirus); normalized percent inhibition; inhibition, % (no concentration beside the values); hit rate 0.15% among 190,000; AID 1918969, 2023;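 active = both replicates at 50% or more, plus weaker picks with an unusually low signal ratio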;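 also: stock transfer was 100 nL into about 20 µL; 0% = negative control wells and 100% = wells with untagged competitor protein; inactives centre near -12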
Sa growth 42C second temp = further read-out of Sa growth 42C, marked with its call; relative growth, %; measured here: growth at 30 °C;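 optical density after 20 h as mean of two plates; 100% = untreated growth and lower means inhibition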
Starred values were filed as active, the others as inactive; x = no result given; & = joins results of further samples. Rows were taken by chance. Share with any hit: about 0.82%.

SMILES	Sa growth 42C	Sa growth 42C second temp	GIV-Gai inh	HCMV UL50-53 inh
O=P(O)(CN1CCCCCC1)CN1CCCCCC1	107.9	58.7	100.1	-18.8
O=C(O)Cn1c(=O)oc2cc(S(=O)(=O)NC3CCCCC3)ccc21	81.5	89.3	100.2	-11.0
CC1CCCC(C)N1C(=O)CSc1nccn1C (stereo not drawn)	112.4	89.5	x	-40.7
Cc1cnc(C(=O)OC(C)C(=O)N(C)c2ccccc2)cn1 (stereo not drawn)	80.9	92.7	x	-23.5
COc1ccc(-c2nnc(NC(=O)c3ccc4c(c3)OCO4)s2)c(OC)c1	88.2	86.4	99.7	-22.7
Cc1ccc(N=Cc2c(C)[nH]c3ccccc23)cc1C	77.4	85.5	x	-18.3
NC(=O)c1cc(NC(=O)CCS(=O)(=O)c2ccccc2Cl)cc(C(N)=O)c1	93.8	94.1	x	-26.7
NC(=O)CSc1ncc2c(n1)-c1ccccc1N(Cc1ccccc1)S2(=O)=O	84.0	82.2	100.9	x
CC(=O)OCCNc1cc(Cl)c2noc3c2c1C(=O)c1ccccc1-3	84.6	85.0	104.3	-39.5
O=C(NCCc1ccccc1)c1cc2c(s1)CS(=O)(=O)C2	92.2	86.5	103.7&103.1	9.6&-32.5
CC(C)c1ccc(NC(=O)N2CCC(c3nc4ccccc4o3)CC2)cc1	70.1	98.6	99.9	-6.8
O=C(CSc1nc(-c2cccs2)cc(C(F)(F)F)n1)OCCCc1ccccc1	79.1	82.5	104.2	x
Cc1ccc(C)c(C(=O)OCC(=O)NCc2ccco2)c1	89.9	88.1	x	-4.2
COC(=O)CN1C(=O)COc2cc(S(=O)(=O)NC3CCCC3)ccc21	94.7	87.3	95.6	x
COc1ccc(CCC(=O)NCc2cccs2)cc1	108.4	98.7	x	8.1
Cc1nn(-c2ccccc2)c(Cl)c1C(=O)NCCSCc1ccco1	112.4	87.4	x	-19.7
O=C(CCN1C(=O)c2ccccc2C1=O)NCCCn1ccnc1	x	x	100.0	-44.0
Clc1ccc(Oc2nc(Oc3ccc(Cl)cc3)nc(N3CCSCC3)n2)cc1	93.8	84.3	99.9	-17.0
COc1cccc(-n2c(-c3ccc(Cl)cc3)cn3c4c(=O)n(C)c(=O)n(C)c4nc23)c1	x	x	104.5	-2.1
CC(C)CN=C1NC(=O)C(CC(=O)NC2CC2)S1 (stereo not drawn)	75.7	93.2	x	-18.7

Entries shown so far that contain an aryl methoxy group:
SMILES	Sa growth 42C	Sa growth 42C second temp	GIV-Gai inh	HCMV UL50-53 inh
COc1ccc(-c2nnc(NC(=O)c3ccc4c(c3)OCO4)s2)c(OC)c1	88.2	86.4	99.7	-22.7
COc1ccc(CCC(=O)NCc2cccs2)cc1	108.4	98.7	x	8.1
COc1cccc(-n2c(-c3ccc(Cl)cc3)cn3c4c(=O)n(C)c(=O)n(C)c4nc23)c1	x	x	104.5	-2.1

Later entries
SMILES	Sa growth 42C	Sa growth 42C second temp	GIV-Gai inh	HCMV UL50-53 inh
O=C(NCc1cccnc1)[C@H](Cc1ccccc1)N1Cc2ccccc2C1=O	80.9	92.1	102.1	-3.1
Cc1ccc(-n2nc(C)c3nc(CCC(=O)O)c(=O)n(C)c32)cc1	106.0	83.8	104.3	-72.7
CCOC(=O)/C=C1\SCC(=O)N1CC(=O)Nc1ccc(OC)c(Cl)c1	93.0	84.9	x	2.5
CN1CCCc2cc(/C=N/n3c(C(F)(F)F)n[nH]c3=S)ccc21	104.1	41.7	101.2	x
COc1ccccc1CN(C)CC(=O)NC(=O)NC1CCCCC1	95.6	93.5	x	-10.8
c1ccc(OCc2nc(-c3ccccc3)no2)cc1	84.5	84.3	104.1	-24.7
CCCNC(=O)c1cnc2sc(N3CCCCC3)nn2c1=O	107.7	84.7	100.7	x
S=c1[nH]nc(-c2c[nH]c3ccccc23)n1CC1CCCO1 (stereo not drawn)	92.6	95.3	x	10.7
O=C(Nc1ccc2[nH]ccc2c1)c1cccnc1Sc1ccccc1	129.9	97.6	104.3	-10.0
O=C(O)c1ccc2nc(-c3cc4cc(F)ccc4oc3=O)[nH]c2c1	107.3	95.6	101.4	x
CCS(=O)(=O)C1=NN2C(=N)/C(=C\c3ccc(-c4ccccc4)o3)C(=O)N=C2S1	43.6*	70.9*	109.0	-116.9
Cc1nn(Cc2ccccc2)c2sc(C(=O)O)cc12	100.0	90.8	x	-13.7
CCN=C(NCC)SC1CC(=O)N(c2ccc(OCC)cc2)C1=O (stereo not drawn)	116.9	92.5	x	3.2
O=C(Nc1ccc2nsnc2c1NC(=O)c1ccc2nsnc2c1)c1ccc2nsnc2c1	88.1	77.0	98.6	-34.7
CCOC(=O)C1=C(C)N=c2s/c(=C/c3ccc(OC(=O)c4ccco4)cc3)c(=O)n2C1c1ccccc1 (stereo not drawn)	x	x	101.9	-17.8
Cc1ccc(Cl)cc1N1CCN(C(=O)Cn2ncc3c([nH]c4ccccc43)c2=O)CC1	139.6	97.2	104.5	x
Cc1ccc(N=C(NN)c2ccc3ccccc3n2)cc1	114.7	81.2	101.2	-21.3
N#CCC(=O)Nc1cc(C(F)(F)F)cc(C(F)(F)F)c1	108.5	101.5	103.8	3.3
Cc1cccc(N2CCN(CCNC(=O)c3cc4sccc4n3C)CC2)c1C	93.8	80.9	99.9	-17.3
COc1ccc(CCNCc2c(C(=O)O)c(C)n(Cc3c(F)cccc3Cl)c2C)cc1OC	85.8	76.8	103.9	-4.8
COc1ccc(NC(=O)c2ccc(N3C(=O)c4ccccc4C3=O)cc2)cc1	105.5	81.8	98.7	x
CCOc1ccc(N2CC(c3nc4ccccc4n3CCCc3ccccc3)CC2=O)cc1 (stereo not drawn)	119.5	83.0	104.0	x
Cc1nn2c(=O)c(C(=O)O)cnc2s1	x	x	105.6	-25.7
Cc1ccc(NC(=O)c2c(C)nn(-c3ccccc3)c2-n2cccc2)c(Cl)c1	90.6	92.3	96.0	-1.1
CCOc1ccc(/C=C2\SC(=Nc3cccc(C)c3C)NC2=O)cc1	77.4	96.2	99.2	x
CC1CCCCC1NC(=O)CSc1nnc(-c2ccco2)n1Cc1ccccc1 (stereo not drawn)	97.3	93.9	x	-3.6
COc1ccc(C2=NOC(C(=O)Nc3c(C)n(C)n(-c4ccccc4)c3=O)C2)cc1 (stereo not drawn)	96.0	88.0	98.6	-4.9
Cc1nnc2n(c1=O)N=C(N)CS2	89.4	86.2	100.6	-30.0
O=C(c1ccco1)N(Cc1cccnc1)c1nc2c(F)cc(F)cc2s1	127.1	81.2	98.1	x
O=C(NC1CCCCC1)C1CCN(c2ccc(-c3cccc(F)c3)nn2)CC1	x	x	100.3	-11.3
COc1ccc(Cl)cc1NS(=O)(=O)c1cc(Br)cc2c1N(C(=O)C1CC1)CC2	104.5	92.2	99.3	-6.1
CC(=O)N1CCc2cc(S(=O)(=O)NC(C(=O)NCCc3ccc(S(N)(=O)=O)cc3)C(C)C)ccc21 (stereo not drawn)	x	x	96.2	-19.4
c1ccc2c(c1)oc1c(NCC3CCCCC3)ncnc12	33.3	38.0	x	-5.8
O=C1NC(Cc2c[nH]c3ccccc23)C(=O)N1CN1CCCCC1 (stereo not drawn)	79.5	97.1	x	-36.2
CCCCc1ccc(Nc2cc(C)nc(-n3nc(C)cc3C)n2)cc1	22.1	4.2	104.0&99.7	x
Cc1ccc(NC(=O)C(Cc2c[nH]c3ccccc23)NC(=O)OCc2ccccc2)cc1C (stereo not drawn)	88.4	74.6	x	-6.5
NC(N)=NS(=O)(=O)c1ccc(N=Cc2cccs2)cc1	81.4	75.9	102.7	x
Cc1ccc(N/N=C2/C(=O)C3(C)CCC2C3(C)C)cc1 (stereo not drawn)	98.8	92.3	98.3	-14.9
CC1(C)CC(/C=C/c2ccccc2)=Nc2ccccc2N1	92.5	58.9	156.0	x
O=C(CCCC1CCCCC1)NCC1CCCO1 (stereo not drawn)	104.0	91.5	97.8	-16.0
COc1cc(-c2nc3sc4c(c3c(=O)[nH]2)CCCC4)ccc1OCc1ccccc1	x	x	99.3	14.4
COc1ccc(/C=C(\C#N)c2nc3ccccc3c(=O)[nH]2)cc1OC	93.9	89.7	104.4	-6.3
CO/C=N/c1nc2c(s1)CCc1ccccc1-2	113.3	79.9	102.5	-1.5
Cc1ccc(N2COc3ccc4c5c(c(=O)oc4c3C2)CCCC5)c(C)c1	100.7	100.8	102.4	-3.2
Oc1[nH]c2ccccc2c1C=NCc1ccc2c(c1)OCO2	70.1	115.2	107.2	-17.4
COc1ccccc1N1CCNC(C)C1=O (stereo not drawn)	94.5	85.2	98.9	-24.0
O=C(Nc1ccc(Br)cc1F)C(NS(=O)(=O)c1cccc2nsnc12)c1ccccc1 (stereo not drawn)	100.2	67.8	103.9	-64.2
CS(=O)(=O)c1ncc(Cl)c(C(=O)Nc2sc3c(c2C(=O)NCC2CCCO2)CCC3)n1 (stereo not drawn)	93.8	82.9	115.3	x
O=C1N=c2ccccc2=C1c1sc(=S)n(NC(=O)c2ccc(Br)cc2)c1O	x	x	104.5	-21.1
CC1CCCCN1S(=O)(=O)CCNC(=O)c1ccccc1 (stereo not drawn)	85.7	88.4	104.6	-15.5
O=C(CCc1nc2ccccc2[nH]1)NCc1ccc(F)cc1	74.2	81.2	102.3	-4.2
Cc1nc2nncn2c(NCc2ccc(F)cc2)c1C	103.3	87.4	101.5	-35.4
CS(=O)(=O)Nc1ccc(C2=NN(S(C)(=O)=O)C(c3ccc4c(c3)OCO4)C2)cc1 (stereo not drawn)	104.3	71.5	119.7	-20.1
O=S(=O)(NCc1nc2cccnc2n1Cc1ccccc1Cl)c1ccc(F)c(Cl)c1	111.4	93.1	101.8	x
Cc1ccc(C(=O)NC(Nc2cc(C)on2)(C(F)(F)F)C(F)(F)F)cc1	92.0	82.9	101.7	-35.6
Fc1ccc(CNC(=S)NCCN2CCOCC2)cc1	69.8	88.7	x	-18.8
O=C(OCCO)c1cccc2c1-c1ccccc1C2=O	96.9	92.3	104.2	-139.7
O=C(CSc1ccc2c(c1)OCCO2)N1CCC(c2ccccc2)=N1	74.3	92.5	x	1.3
c1ccc2[nH]c(SCc3ccncc3)nc2c1	113.0	95.1	102.6&99.0	4.0&-1.3
COc1ccc(CC(=O)Nc2sc3c(c2C(=O)Nc2cccc(Cl)c2)CCCCC3)cc1	103.9	86.2	105.0	-66.2

In the list so far, these contain a cyano group.
SMILES	Sa growth 42C	Sa growth 42C second temp	GIV-Gai inh	HCMV UL50-53 inh
N#CCC(=O)Nc1cc(C(F)(F)F)cc(C(F)(F)F)c1	108.5	101.5	103.8	3.3
COc1ccc(/C=C(\C#N)c2nc3ccccc3c(=O)[nH]2)cc1OC	93.9	89.7	104.4	-6.3

The results go on:
SMILES	Sa growth 42C	Sa growth 42C second temp	GIV-Gai inh	HCMV UL50-53 inh
COc1ccc(N(C(=O)Cn2nnc3ccccc32)C(C(=O)NCc2ccccc2)c2ccc(F)cc2)cc1 (stereo not drawn)	100.9	89.9	107.6	-7.9
COc1ccc(C2Nc3ccccc3C(=O)N2c2ccc(C)cc2)cc1CSc1ccccn1 (stereo not drawn)	x	x	100.1	-19.1
CC(=O)Nc1nc2nc(C)c(Cc3ccccc3)c(=O)n2[nH]1	x	x	115.8	-7.5
CCOC(=O)c1ccc(NC(=O)c2sc(NC(=O)Cc3cccs3)c(C(=O)OCC)c2C)cc1	x	x	101.0	-13.8
c1cc(N2CCCC2)ccc1-c1noc(C2CCC2)n1	x	x	110.2	-1.5
Cc1ccc2oc(-c3cccc(Br)c3)nc2c1	95.2	97.9	102.0	9.9
O=C1CCCS(=O)(=O)CC1	112.6	99.0	104.0	-13.2
Cc1cc(C)cc(NC(=O)CSCc2cc(=O)n3[nH]cnc3n2)c1	x	x	100.9	-6.3
COC(=O)N1N=C(C)CC1(O)c1ccc(Cl)cc1 (stereo not drawn)	111.1	81.2	108.8	2.1
O=C(OCc1cc(Cl)cc2c1OCOC2)c1c[nH]c2ccccc12	77.9	100.3	x	-25.4
CN(Cc1nc2ccccc2c(=O)[nH]1)C(=O)COc1ccc2c(c1)CCC2	115.1	93.4	x	7.2
Cc1cc(C)n(-c2nc3ccccc3nc2N2CCN(c3cccc(C)c3C)CC2)n1	104.3	95.4	102.0&98.4	-3.2&-12.6
N#CCCn1c(SCC(=O)Nc2ccc(S(=O)(=O)N3CCCCC3)cc2)nc2ccccc21	59.6	89.7	x	-22.7
CC1(C)CC(=O)C2=C(C1)OC(N)=C(C#N)C2c1cccc(OC(=O)c2ccco2)c1 (stereo not drawn)	x	x	103.0	-11.8
COCCn1c(C)cc(C(=O)CSc2nc(C)c(C)n2C2CCCCC2)c1C	103.1	77.8	x	-34.9
Cc1cccc(C)c1NS(=O)(=O)c1cc(C(=O)N2CCCC2)cs1	x	x	104.8	-34.4
O=C(NCC1CC1)Nc1ccccc1F	91.3	80.1	104.4	-22.5

Arranged by value in Sa growth 42C second temp (highest first): 4 from the list above.
canonical_smiles	Sa growth 42C second temp
c1ccc2[nH]c(SCc3ccncc3)nc2c1	95.1
CC1CCCCC1NC(=O)CSc1nnc(-c2ccco2)n1Cc1ccccc1 (stereo not drawn)	93.9
Cc1nn(Cc2ccccc2)c2sc(C(=O)O)cc12	90.8
COc1ccc(/C=C(\C#N)c2nc3ccccc3c(=O)[nH]2)cc1OC	89.7
